Assay outcomes: PubChem, several laboratories
CBX7 inh – inhibitors of human CBX7 binding to H3K27me3 peptide; O95931; AlphaScreen His6-CBX7 / biotin-H3K27me3 peptide binding; active compounds read low; normalised signal (fraction of DMSO) (test concentration not listed); hit rate 1.1% among 66,000; AID 1224903; in the data active = normalised signal below about 0.5;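 note: 100 nL library stock added to about 20 µL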
Target sequence (O95931 whole entry, looked up): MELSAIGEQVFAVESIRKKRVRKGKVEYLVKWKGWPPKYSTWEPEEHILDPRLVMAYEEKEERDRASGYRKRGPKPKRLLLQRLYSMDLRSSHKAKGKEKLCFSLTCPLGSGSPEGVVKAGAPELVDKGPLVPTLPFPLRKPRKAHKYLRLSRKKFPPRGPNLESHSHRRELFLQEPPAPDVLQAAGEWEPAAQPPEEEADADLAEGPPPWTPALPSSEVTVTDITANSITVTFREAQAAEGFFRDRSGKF
CBX7 inh z-score – recorded beside CBX7 inh, whose call it bears; z-score; measured here: z-score of CBX7 signal; some inactives read as strong as hits; reference of the scale not given here;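 same signal on another scale; lower means less binding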
Active calls of the source: *.

SMILES	CBX7 inh	CBX7 inh z-score
O=C(Nc1ccc2c(c1)OCCO2)c1cnc(N2CCN(c3ccccn3)CC2)c2ccccc12	0.84	-2.3
O=C(Nc1ccc2nc3n(c(=O)c2c1)CCCCC3)c1cccc(F)c1	1	1.2
COc1cc(C2(c3ccc(O)c(OC)c3)C(=O)Nc3ccccc32)ccc1O	0.98	-0.13
COc1ccccc1C(=O)Nc1c(C(=O)c2ccc(C)cc2)oc2ccccc12	1.5	2.1
COc1ccc(-c2nc(C(=O)N3CCOCC3)c(C)o2)cc1	0.93	-1.3
Cc1cccc(-c2noc(COc3ccc(Br)c(C)c3)n2)c1	1.1	1.1
O=C(c1ccccc1Cl)N(Cc1cccs1)C1CCS(=O)(=O)C1 (configuration not stated)	1.1	0.71
COCCCNC(=O)CCCn1c(=O)[nH]c2cc(OC)c(OC)cc2c1=O	1	0.85
Cc1noc(C)c1S(=O)(=O)N1CCC(C(=O)N2CCC(C)CC2)CC1	0.97	-1.3
CC(=O)NCCNC(=O)CCCn1c(=O)[nH]c2ccsc2c1=O	1.1	1
COc1cccc(CN2CCN(C3CCN(Cc4ccccc4)CC3)CC2)c1OC	0.95	-1.5
CCN(CC)CCNC(=O)c1ccc2c(c1)N(Cc1ccccc1Cl)C(=O)c1ccccc1S2	0.96	-1
CN1c2ccccc2Oc2nnc(N3CCN(Cc4ccccc4)CC3)cc21	1.1	2.6
Cc1ccccc1NC(=O)CN1C(=O)CSc2ncccc21	1	0.11
Cc1ccc(-c2noc(CCC(=O)Nc3cccc(C#N)c3)n2)cc1	1.1	3.9
O=C(Cn1c(-c2ccccc2Cl)nc2ccccc2c1=O)Nc1ccc(F)cc1	0.93	-1.2
COc1ccc(CNC(=O)c2cc(CC(C)C)on2)cc1	0.98	-0.22
Cc1ccc(-c2n[nH]c3c2C(c2ccccc2Cl)N(c2ccc(F)cc2)C3=O)cc1 (configuration not stated)	0.95	-1.2
CCOC(=O)N1CCc2c(sc(NCc3cccc(OC)c3)c2C(=O)Nc2cc(OC)ccc2OC)C1	0.73	-14
CCOCCCNC(=O)Cn1ccc2ccccc2c1=O	1.2	1.6

6 of the entries above in order of the CBX7 inh z-score value, highest first.
molecule,CBX7 inh z-score
Cc1ccc(-c2noc(CCC(=O)Nc3cccc(C#N)c3)n2)cc1,3.9
CN1c2ccccc2Oc2nnc(N3CCN(Cc4ccccc4)CC3)cc21,2.6
CCOCCCNC(=O)Cn1ccc2ccccc2c1=O,1.6
COc1ccc(CNC(=O)c2cc(CC(C)C)on2)cc1,-0.22
CCN(CC)CCNC(=O)c1ccc2c(c1)N(Cc1ccccc1Cl)C(=O)c1ccccc1S2,-1
COc1cccc(CN2CCN(C3CCN(Cc4ccccc4)CC3)CC2)c1OC,-1.5

(more compounds)
SMILES	CBX7 inh	CBX7 inh z-score
Cc1ccc(S(=O)(=O)N2CCC(C(=O)N3CCC(C(=O)NCCc4ccccc4)CC3)CC2)cc1	0.89	-0.89
Cc1ccc(NC(=O)CCn2nc(-c3ccccc3)c3ccccc3c2=O)cc1	1	0.97
Cc1ccc(C(=O)Nc2ccccc2C(=O)O)cc1S(=O)(=O)N1CCOCC1	1.1	2.5
Cc1oc(-c2ccc(Cl)cc2)nc1CN1CCC(C(=O)NCC2CCCO2)CC1 (configuration not stated)	1	0.26
COc1ccc(OC2C(=O)N(Cc3ccc4c(c3)OCO4)C2c2ccc(F)cc2)cc1 (configuration not stated)	0.7	-1.1
COc1ccc(-n2nc3c(c2NC(=O)c2cccc(OC)c2)CSC3)cc1	1	0.11
COc1cccc(Nc2ncc(C(=O)Nc3cc(C)ccc3OC)c3ccccc23)c1	1.3	7.2
COc1ccccc1NC(=O)Cn1cnc2sc(C(=O)Nc3ccc(F)cc3)c(C)c2c1=O	1	0.15
Cc1cc(=O)oc2c(CN3CCOCC3)c(O)c(Cl)cc12	0.98	-0.5
CCCCNC(=O)c1cc(-c2ccccc2)nc2ccccc12	1	0.16

Shown with bars between the fields: 4 of the compounds above
compound | CBX7 inh | CBX7 inh z-score
Cc1ccc(NC(=O)CCn2nc(-c3ccccc3)c3ccccc3c2=O)cc1 | 1 | 0.97
COc1ccccc1NC(=O)Cn1cnc2sc(C(=O)Nc3ccc(F)cc3)c(C)c2c1=O | 1 | 0.15
Cc1oc(-c2ccc(Cl)cc2)nc1CN1CCC(C(=O)NCC2CCCO2)CC1 (configuration not stated) | 1 | 0.26
Cc1ccc(S(=O)(=O)N2CCC(C(=O)N3CCC(C(=O)NCCc4ccccc4)CC3)CC2)cc1 | 0.89 | -0.89

(more compounds)
SMILES	CBX7 inh	CBX7 inh z-score
CCc1ccc(NC(=O)CN(c2ccc(C(C)C)cc2)S(=O)(=O)c2c(C)noc2C)cc1	0.82	-0.72
CCC1Oc2ccccc2N(CC(=O)NCCCN2CCOCC2)C1=O (configuration not stated)	1.1	1.1
COc1ccc(NC(=O)Cn2cc(S(=O)(=O)c3ccc(Cl)cc3)c(=O)c3cc(C)ccc32)cc1	1	0.39
COc1ccc(-c2nc3ccccn3c2Nc2ccc(Cl)cc2)cc1	1.1	2.2
COc1cccc(-c2nc3sc4c(c3c(=O)n2Cc2c(F)cccc2Cl)CCCC4)c1	1.2	2.7
CCc1c(O)nc2ccccn2c1=O	1	-0.037
CCCCC(=O)Nc1ccc(-c2cn3cccc(C)c3n2)cc1	1	0.5
N#Cc1ccccc1Cn1c(-c2nonc2N)nc2ccccc21	1.1	1
COc1ccc(-c2c(C)nn3c(N4CCCC4)cc(C)nc23)cc1OC	0.93	-1.8
Cc1cccc(C)c1OCCCc1c(C)n[nH]c1C	0.95	-2.8
c1ccc(-c2nnc(Nc3ccc4c(c3)OCCO4)c3ccccc23)cc1	0.87	-0.6
Cc1ccccc1NC(=O)Nc1csc2c1CCCC2	0.98	-0.19
COc1ccc(NC(=O)c2sc3nc(-c4ccccc4)cn3c2C)c(OC)c1	0.95	-0.91
Cc1ccc(C2(c3ccc(C)cc3)CC2C(=O)Nc2cccc(Cl)c2)cc1 (configuration not stated)	1.2	5.2
O=S(=O)(c1ccccc1)c1nc(N2CCCc3ccccc32)sc1Cl	0.97	-0.8
Cc1ccc(-c2nn(CCC(=O)Nc3cccc(Cl)c3)c(=O)c3ccccc23)cc1	0.96	-1.3
COc1ccc2c(c1)CCc1c(C(=O)Nc3c(C)nn(Cc4ccc(Cl)c(Cl)c4)c3C)noc1-2	0.93	-1.7
Cc1ccccc1Nc1nnc(-c2ccc(C)c(S(=O)(=O)N3CCOCC3)c2)c2ccccc12	0.73	-7.2
Cc1nc2ccc(S(=O)(=O)NC(CC(C)C)C(=O)Nc3cccc(C(F)(F)F)c3)cc2s1 (configuration not stated)	1	0.48
O=C(NC1CCCC1)c1ccc2c(c1)N(Cc1ccccc1)C(=O)c1ccccc1S2=O (configuration not stated)	0.9	-2.7
Cc1onc(-c2ccccc2Cl)c1C(=O)Nc1ccccc1	1.3	3.8
NC(=O)C1(N2CCCCC2)CCN(C2CC(=O)N(c3ccc(Cl)c(Cl)c3)C2=O)CC1 (configuration not stated)	0.99	-0.52
CC1CC(C)CN(CCCNC(=O)c2cc(=O)[nH]c3ccc(S(=O)(=O)N4CCCC4)cc23)C1 (configuration not stated)	1	0.98
Cc1ccc(NC(=O)CN(c2ccc(C(C)C)cc2)S(=O)(=O)c2c(C)nn(C)c2C)cc1F	1.3	1.8
Cc1ccccc1NC(=O)NCCCN1CCC(Cc2ccccc2)CC1	1.2	4.4
Cc1cc(Nc2ccc(Cl)cc2Cl)nc(-c2ccccc2O)n1	1	0.052
O=C(Cn1nc(Cc2cccnc2)c2ccccc2c1=O)N1CCC(N2CCCCC2)CC1	0.66	-0.45
Cc1cccc(Nc2c(-c3ccccc3)nc3nc(C)cc(C)n23)c1	0.74	-2.9
COc1cccc(C(=O)Nc2c3c(nn2-c2cccc(C)c2C)CS(=O)(=O)C3)c1	0.87	-1.5
CC(C)n1c(-c2nonc2N)nc2ccccc21	1.1	2.6
Cc1cccc(-c2noc(COc3ccc(C)c(C)c3)n2)c1	1.3	0.32
COC(=O)c1ccccc1NC(=O)c1csc2c1CCCC2	1.2	8.2
O=C(NC1CCCCCC1)c1cc2c(s1)-c1ccccc1OC2	1.6	30
COc1ccc(-c2noc(CCC(=O)NCCN(C)C)n2)cc1	0.89	-1.5
COc1ccc(CCNC(=O)c2csc3c2CCCC3)cc1OC	1	-0.045
O=C(Cc1ccc(-n2c(=O)[nH]c3ccsc3c2=O)cc1)NC1CC1	1	0.14
CCn1c(C(C)NC(=O)Cc2ccccc2)nc2ccccc21 (configuration not stated)	1.1	1.3
CCC1CCCCN1CCCNC(=O)COc1ccc2c(c1)C(=O)CC(C)(C)O2 (configuration not stated)	0.71	-5.8
Cc1ccc2nc(NC(=O)c3c(-c4ccccc4)noc3C)sc2c1	1.1	2.9
N#Cc1nc(-c2ccccc2)oc1NCc1ccc2c(c1)OCO2	1	0.53
CCCCN(C)S(=O)(=O)c1ccc(C(=O)Nc2nnc(C3CC3)o2)cc1	0.034*	-1.7*
CC(C)n1c(=N)n(CCOc2ccccc2)c2ccccc21	1.1	2.4
CCCC1C(=O)CC(c2ccccc2)NC1c1ccccc1 (configuration not stated)	1.2	7.3
COc1cc(OC)cc(-n2nc(C(=O)Nc3cc(C)c(Cl)cc3OC)c3ccccc3c2=O)c1	1	0.42
CCc1ccc2c(c1)c(=O)c(S(=O)(=O)c1ccc(F)cc1)cn2CC(=O)Nc1ccc(C)cc1C	1	-0.0026
COc1ccc(-n2nc(C(=O)Nc3ccc(F)c(Cl)c3)c3ccccc3c2=O)cc1	0.96	-0.97
O=S(=O)(Nc1ccc(Cl)cc1F)c1cnc[nH]1	1.2	0.44
CCCOc1ccc(C2C(=O)N(C3CCCCC3)CC(=O)N2Cc2cccc(OC)c2)cc1OC (configuration not stated)	0.94	-0.06
COc1ccc(CC(Cc2nc3ccccc3[nH]2)c2nc3ccccc3[nH]2)cc1 (configuration not stated)	1.2	1.2
O=S(=O)(Nc1ccc(OC(F)(F)F)cc1)c1cnc[nH]1	0.84	-2.1
More results follow:
SMILES	CBX7 inh	CBX7 inh z-score
COc1ccc(NC(=O)c2cccc3c2C(=O)N(Cc2cccnc2)C3)cc1Cl	0.94	-0.5
CCOc1cc(OCC)cc(C(=O)Nc2ccc3oc(-c4cccc(F)c4)nc3c2)c1	1.1	3.2
CC(=O)N1CCc2cc(S(=O)(=O)NC(Cc3ccccc3)C(=O)N3CCc4ccccc43)ccc21 (configuration not stated)	0.98	-0.75
Cc1ccc(CNC(=O)C2(S(=O)(=O)c3ccc(Cl)cc3)CC2)cc1	1.1	2.2
Cc1ccc(CCNC(=O)CN2CCN(Cc3cccc(C)c3)C2=O)cc1	1.2	3.2
COc1cc(NC(=O)CC2Sc3ccccc3NC2=O)c(OC)cc1Cl (configuration not stated)	1	0.15
C=CCOCC(O)COC(=O)c1ccccc1Nc1ccnc2cc(Cl)ccc12 (configuration not stated)	1	0.31
O=C(C1CC1)N1CCc2cc(S(=O)(=O)NCCN3CCN(c4ccccc4F)CC3)ccc21	0.95	-0.53
COc1ccc(C2=NOC(C(=O)Nc3ccccc3C(F)(F)F)C2)cc1 (configuration not stated)	1.1	2.5
CCOc1ccc(C(=O)N2CC(=O)Nc3ccc(Cl)cc3C2c2ccc(F)cc2)cc1 (configuration not stated)	0.97	-0.64
Cc1ccc(-c2nn3c(C)nnc3s2)cc1NC(=O)COc1ccc(Cl)cc1	1	0.032
O=C(NC1CCCCCC1)[C@H](CSCc1ccccc1)N1Cc2ccccc2C1=O	0.91	-2
O=C(NC1CC1)c1ccc2c(c1)N(Cc1ccccc1)C(=O)c1ccccc1S2(=O)=O	0.95	-1.2
CCCCCn1c(=O)c(-c2nc3ccccc3c(=O)[nH]2)c(O)c2ccccc21	0.97	-0.47
CCc1ccc(N(C)S(=O)(=O)c2ccc3[nH]cc(C(=O)N4CCCCCC4)c(=O)c3c2)cc1	1.2	1.7
COc1cccc(-n2ccnc2SCC(=O)Nc2cc(C)ccc2C)c1	0.92	-1.2
CCn1c(CCNC(=O)C(C)(C)C)nc2ccccc21	1.1	1.6
Cc1ccccc1C(=O)NCCc1c(C)[nH]c2c(C)ccc(F)c12	0.52	-0.97
Cc1nc2c(C(=O)NC3CCCCC3)cnn2c(C)c1Cc1ccc(Cl)cc1	0.97	-1.1
COc1ccccc1CC(=O)Nc1ccc2nc(N3CCC(C)CC3)cc(C)c2c1	1	1.3

Profiles, quoted from the list.
Listed for Cc1ccc(-c2nn3c(C)nnc3s2)cc1NC(=O)COc1ccc(Cl)cc1 → CBX7 inh: 1; CBX7 inh z-score: 0.032
Listed for O=C(NC1CCCCCC1)[C@H](CSCc1ccccc1)N1Cc2ccccc2C1=O → CBX7 inh: 0.91; CBX7 inh z-score: -2

Carrying on:
SMILES	CBX7 inh	CBX7 inh z-score
O=C(CSc1nc2ccccc2nc1Cc1ccc(F)cc1)Nc1nccs1	1	0.019
CCn1cc(C(=O)Nc2cc(Cl)c(OC)cc2OC)c2cc(OC)c(OC)cc2c1=O	1.2	1.5
COc1ccc(-c2nnc(NC(=O)c3ccc(S(=O)(=O)N(C)Cc4ccccc4)cc3)o2)cc1	0.0078*	-17*
CCOc1ccc(S(=O)(=O)c2cn(Cc3cccc(C)c3)c3ccc(OCC)cc3c2=O)cc1	0.9	-3.6
CC(C)COc1ccc(C(=O)N(Cc2ccc(N(C)C)cc2)C2CCS(=O)(=O)C2)cc1 (configuration not stated)	0.93	-0.64
N#Cc1nc(COc2ccc(Br)cc2)oc1N1CCN(Cc2ccccc2)CC1	0.65	-15
CCC(=O)N1CCc2cc(S(=O)(=O)Nc3ccccc3C(=O)OC)ccc21	1.1	0.71
CN1CCN(C(=O)CN2C(=O)CC(C)(C)S(=O)(=O)c3ccccc32)CC1	1	0.87
Cc1ccc(-n2nc3c(c2NC(=O)Cc2ccc(F)cc2)CS(=O)(=O)C3)cc1	1.2	1.2
Cc1ccccc1-c1nc(CS(=O)(=O)CC(=O)NCCc2ccc(Cl)cc2)c(C)o1	0.8	-1.7
CCC(=O)N1CCc2cc(S(=O)(=O)NCCC(=O)NCc3ccc(OC)cc3)ccc21	1.1	3.3
Cc1nn(CC(=O)NC2CCC(C)CC2)c2ccccc12 (configuration not stated)	1	0.18
CCN1CCN(c2oc(COc3ccc(Cl)cc3)nc2C#N)CC1	0.72	-1.8

Only part of the results is shown; rates above refer to the full screens.
